VACV Venus inh – qHTS for Stage-Specific Inhibitors of Vaccinia Orthopoxvirus: Venus Reporter Primary qHTS | Potency, µM (highest dose often 36.5 µM), for the others: top-dose activity change, negative = inhibition, usual class: inhibitors | AID 720580, 2013 | Vaccinia virus Venus reporter expression, fluorescence | 330,000 tested, 0.46% active; active means well fitted inhibition curve with a large enough effect; inconclusive means small, poorly fitted or top-dose-only effect; inactive means no such curve, though single readings can be large or run the other way; tested in A549 cells; further: nearly all actives have a fitted effect of over 30% in size; inactives centre near -10
VACV mCherry inh – qHTS for Stage-Specific Inhibitors of Vaccinia Orthopoxvirus: mCherry Reporter Primary qHTS | Vaccinia virus mCherry reporter infection, fluorescence; about a quarter of the inactives have no number | Potency, µM (doses to about 36.5 µM), for the others: at the top dose activity change, negative = inhibition, most hits filed as inhibitors | 310,000 tested, 0.63% active | AID 720579, 2013; active = well fitted inhibition curve with a large enough effect; inconclusive = small, poorly fitted or top-dose-only effect; inactive = no such curve, though single readings can be large or run the other way; tested in A549 cells; further: nearly all actives have a fitted effect of over 35% in size; inactives centre near -10
Active calls of the source: *; i = inactive; ? = inconclusive; . = no result given; & = joins results of further samples; [ ] = another dose, or the depositor's remark. On the % scale 0 is the no-effect control and ±100 the full control effect; potency means the concentration at half of the fitted maximal effect. Random draw from the library; overall some 0.82% were active at least once.

SMILES | VACV Venus inh | VACV mCherry inh
COc1ccc(-c2cn3nc(N4CCC(C(=O)NCc5ccc(F)cc5)CC4)sc3n2)cc1 | -11% | -5%
CC(C)(C)c1ccc(-c2n[nH]c(=S)n2/N=C/c2ccncc2)cc1 | -10% | -1%
N#CC1=C(SCC(N)=O)NC(=O)CC1c1cccc2ccccc12 (centres undefined) | -8% | -14%
CCOC(=O)c1nn(-c2ccccc2)cc1O | -15% | i
O=C(CSc1nnc(-c2ccc(F)cc2)o1)Nc1ccc(S(=O)(=O)N2CCCCCC2)cc1 | -2% | -15%
CCc1ccc(NS(=O)(=O)c2c(C(=O)N3CCOCC3)c(C)n(C)c2C)cc1 | -16% | -7%
CCN(CC)CCOC(=O)c1cc(Cl)c(N)cc1OC | -16%&-13% | i
O=C(Nc1ccncc1)c1ccc(Cl)c(S(=O)(=O)N2CCCC2)c1 | -16% | -21%
CC(=O)Nc1ccc(-c2ccnc3c2CC(C)(C(=O)NCc2ccc(N(C)C)cc2)O3)cc1 (centres undefined) | -22% | -14%
CC(=O)c1c(C)[nH]c(C(=O)COC(=O)C2CC2)c1C | -7% | 5%
Cc1ccc(NC(=O)/C=C/c2ccccc2)c(Br)c1 | -3% | -7%
COc1ccc(CN2CCC(C(=O)N(C)CCc3ccc(OC)c(OC)c3)CC2)c(OC)c1 | -1% | i[1.46 µM]
Cc1cc(OCC(=O)NCCc2c[nH]c3ccccc23)c2c(C)cc(=O)oc2c1 | 2% | 7%
C=CCNC(=S)Nc1ccc2nsnc2c1 | -16% | -13%
O=[N+]([O-])c1ccc(C2OCCO2)cc1CS(=O)(=O)c1ccccc1 | -4% | i
O=C(Nc1ccccc1)C1CCN(c2nccs2)CC1 | -16% | -13%
O=C(O)CCC(=O)Nc1ccc(C(=O)OCC(=O)c2ccc(Cl)cc2)cc1 | -13% | -9%
Cc1nc(SCC(=O)NNC(=O)c2cccs2)[nH]c(=O)c1C | 3% | -1%
O=C(c1cccc(Cl)c1)N1CCC(N2CCC(C(=O)N3CCOCC3)CC2)CC1 | 10% | i
Clc1ccccc1CN1CCc2nc(N3CCN(c4ncccn4)CC3)ncc2C1 | -26% | -13%
O=C1CCCC2=C1C(c1cccnc1)Nc1ccccc1N2 (centres undefined) | -13% | i
CNC(=S)N/N=C(\C)c1ccc(Cl)c(Cl)c1 | -7% | -11%
Cc1cccc(NC(=O)CSc2nnc(C3CC3)n2CC2CCCO2)c1C (centres undefined) | -4% | -8%
CC[C@@H]1[C@H]2CCCC(=O)N3CC[C@@H](C[C@@H]1OC(=O)Nc1ccccc1)[C@@H]23 | -13%&-11% | i
NS(=O)(=O)c1ccc(NC(=O)CSc2ncccn2)cc1 | -2% | -10%
COCCNC(=O)C(C)OC(=O)c1cc2sccc2n1C (centres undefined) | -5% | -9%
Cc1ccc(OCC(=O)NCC(=O)Nc2ccc(F)cc2)c([N+](=O)[O-])n1 | 6% | -13%
Cc1ccc(NC(=O)CCNCc2ccco2)cc1S(=O)(=O)N(C)C | 0% | -6%
COc1ccc2oc(=O)c(C(=O)N3CCN(c4ccc(F)cc4)CC3)cc2c1 | 7% | .
COc1ccc(CC(=O)N2CCN(c3ccccn3)CC2)cc1OC | -10% | -11%

Quoted at random: 3 compounds from above.
SMILES | VACV Venus inh | VACV mCherry inh
O=C(c1cccc(Cl)c1)N1CCC(N2CCC(C(=O)N3CCOCC3)CC2)CC1 | 10% | i
O=C(Nc1ccncc1)c1ccc(Cl)c(S(=O)(=O)N2CCCC2)c1 | -16% | -21%
N#CC1=C(SCC(N)=O)NC(=O)CC1c1cccc2ccccc12 (centres undefined) | -8% | -14%

Additional compounds follow.
SMILES | VACV Venus inh | VACV mCherry inh
CC(C)(C)c1ccc(OCCn2c(CCNC(=O)C3CCCCC3)nc3ccccc32)cc1 | ? | -23%
CC(Oc1ccc2ccccc2c1)C(=O)NNC(=O)Nc1ccccc1F (centres undefined) | -5% | -16%
OCCNc1nc(Nc2cccc(O)c2)nc2ccccc12 | -23% | -30%
Cn1c(SCC(=O)Nc2ccccc2F)nc2c([nH]c3ccccc32)c1=O | ? | ?
O=C1C=CN(Cc2ccccc2)CC1 | -12% | -10%
N#Cc1nc(-c2ccc(OCc3ccc(Cl)cc3)cc2)oc1NCCCn1ccnc1 | -2% | .
Cc1ccc(-c2oc3ccccc3c(=O)c2O)cc1 | -11% | -18%
CCCc1nn2c(=O)cc(COC(=O)C3CCCCC3)nc2s1 | 1% | -14%
CSc1nc2sc3c(c2c(=O)[nH]1)CC(C)(C)OC3 | -10% | -19%
CCOc1ccc(Cl)cc1-c1cc(C(=O)NCc2cccs2)[nH]n1 | ? | ?
CCCN(CCC)S(=O)(=O)c1ccc(C(=O)N2CC3CCC(CC3)C2)cc1 | 4% | -13%
CCOc1ccc(S(=O)(=O)N2CCN(C(=O)C3CSC4(C)CCC(=O)N34)CC2)cc1 (centres undefined) | -7% | -12%
Cc1ccc2c(c1Br)/C(=N/N1C(=O)c3ccccc3C1=O)C(=O)N2 | 2% | -12%
COc1cccc(CN2C(=O)NC(C)(C3CCN(Cc4ccc(C)o4)CC3)C2=O)c1OC (centres undefined) | -20% | -24%
O=C(Nc1nccs1)c1nc[nH]c1C(=O)N1CCN(c2ccccc2)CC1 | -13% | -13%
C=CCN(C(=O)CCC(=O)Nc1cc(C)on1)C(C(=O)NC1CCCC1)c1ccc(C)cc1 (centres undefined) | -2% | -12%
CCCCn1c(=NC(=O)C(C)(C)Oc2ccc(Cl)cc2)c(C(=O)OCC)cc2c(=O)n3ccccc3nc21 | 1% | -5%
C=CCS(=O)(=O)N1CCCC(C(=O)c2cccc(Cl)c2)C1 (centres undefined) | ? | ?
Cc1cc(NC(=O)CCCC(=O)NCc2ccccc2)no1 | -12% | i
Cc1cc(N2CCOCC2)c2c(N)c(Br)cc(C)c2n1 | -21% | .

Quoted from the listing.
Reading of `CCCCn1c(=NC(=O)C(C)(C)Oc2ccc(Cl)cc2)c(C(=O)OCC)cc2c(=O)n3ccccc3nc21` in VACV Venus inh: 1%
Reading of `CCCN(CCC)S(=O)(=O)c1ccc(C(=O)N2CC3CCC(CC3)C2)cc1` in VACV Venus inh: 4%
Reading of `COc1cccc(CN2C(=O)NC(C)(C3CCN(Cc4ccc(C)o4)CC3)C2=O)c1OC` (centres undefined) in VACV Venus inh: -20%
Reading of `O=C(Nc1nccs1)c1nc[nH]c1C(=O)N1CCN(c2ccccc2)CC1` in VACV mCherry inh: -13%

The list continues:
SMILES | VACV Venus inh | VACV mCherry inh
CCc1cccc(C)c1Nc1c(-c2ccccc2)nc2sccn12 | -11% | -14%
Cn1c(=O)cc(C(=O)N/N=C/c2ccc(F)cc2)[nH]c1=O | -25%[7.34 µM] | -17%[7.34 µM]
CCc1ccc(S(=O)(=O)NCc2cn3cccc(C)c3n2)s1 | ? | .
CCOC(=O)CC1(C)NC(=O)c2c(C)sc(C(=O)OCC)c2N1 (centres undefined) | -21% | -13%
O=C(Cc1ccccc1[N+](=O)[O-])N1CCN(c2ccccc2F)CC1 | -8% | i
COC(=O)c1ccc(NC(=O)COc2cccc3c2OC(C)(C)C3)cc1 | -20% | -3%
O=C(CSc1nnc(-c2ccco2)o1)NCC(=O)c1ccccc1 | 3% | -10%
O=[N+]([O-])c1ccc(Oc2ccc(S(=O)(=O)N3CCCCC3)cc2)cc1 | -10% | -13%
COc1cc(NC(=O)c2nc3cc(C)c(C)cc3n(C)c2=O)cc(OC)c1OC | 17% | -2%
COc1ccc(CCNC(=O)C(=O)NCC(c2cccs2)S(=O)(=O)c2cccs2)cc1 (centres undefined) | -10% | -24%
COc1ccc(CN2CCc3c(c(=O)n4ncc(C(=O)N5CCN(c6ccc(F)cc6)CC5)c4n3C)C2)cc1 | -16%[7.34 µM] | -22%
CCOC(=O)C1=C(c2ccccc2)OC(N)=C(C#N)C1c1cccnc1 (centres undefined) | 0% | -1%
Cc1ccc(S(=O)(=O)Nc2cc3c4c(c2)CC(=O)N4CCC3)cc1 | -11% | i
O=C(CN(C(=O)CCC(=O)Nc1nccs1)c1ccc2c(c1)OCO2)NCc1ccc(F)cc1 | -8% | -11%
CSCCC(NC(=O)c1ccc(Cl)cc1Cl)C(=O)NCc1ccncc1 (centres undefined) | 2% | -5%
COc1ccc(NC(=O)CCCN2C(=O)CCC2=O)cc1Cl | -19% | .
O=C(c1ccc(F)cc1)N1CCCC(c2ccccc2)C1 (centres undefined) | -8% | i
C=C(NNC(C)=O)c1ccc(O)cc1 | -17% | -13%
COc1ccc(OC)c(N(C(=O)c2snc(C(N)=O)c2N)C(C(=O)NCc2ccccc2)c2ccc(O)cc2)c1 (centres undefined) | -13% | i
C[C@@H]1CN([C@@H](C)CO)S(=O)(=O)c2ccc(Br)cc2O[C@H]1CN(C)Cc1ccc(-c2ccccc2)cc1 | ? | ?
CC(=O)c1cc(-c2ccccc2)n(CCC(=O)NCc2ccc(C)cc2)c1C | 1% | -7%
CCc1nc(SCC(=O)Nc2ccccc2OC)c2c(C)c(C)sc2n1 | -25% | i
COC(=O)c1cc(S(=O)(=O)C(C)C)c(S(C)=O)s1 (centres undefined) | ? | 10µM*
O=C1c2ccccc2S(=O)(=O)c2cc(C(=O)N3CCN(c4ncccn4)CC3)ccc21 | -19% | -6%
COCC(C)NC(=O)c1oc2c(c1C)C1(CCC2)SCCS1 (centres undefined) | -17% | -8%
CC(C)Sc1ccc(C(=O)Nc2ccc(F)cc2F)cn1 | -23% | -14%
O/N=C1/CCc2cccc3cccc1c23 | -1% | -6%
Cc1ccc(OCCSCc2nnc(NC(=O)Nc3cccc(Cl)c3)s2)cc1 | ? | ?
CC1CCN(C(=O)COC(=O)c2cc(Cl)cc(Cl)c2N)CC1 | -8% | -8%
C/C(=N\NS(=O)(=O)c1ccc(Cl)cc1)c1ccc(O)cc1 | -4% | -7%

The closing four records of the part before are carried over, then new ones follow:
SMILES | VACV Venus inh | VACV mCherry inh
O/N=C1/CCc2cccc3cccc1c23 | -1% | -6%
Cc1ccc(OCCSCc2nnc(NC(=O)Nc3cccc(Cl)c3)s2)cc1 | ? | ?
CC1CCN(C(=O)COC(=O)c2cc(Cl)cc(Cl)c2N)CC1 | -8% | -8%
C/C(=N\NS(=O)(=O)c1ccc(Cl)cc1)c1ccc(O)cc1 | -4% | -7%
O=C(NNC(=O)c1ccc2[nH]c(=O)c(=O)[nH]c2c1)c1cccc(Br)c1 | -10% | -18%
CCOc1ccc2nc(NC(=O)c3cnccn3)sc2c1 | -8% | -13%
COc1ccc(CCNC(=O)c2ccc(NS(=O)(=O)c3ccc4[nH]c(=O)[nH]c4c3)cc2)cc1 | -2% | -8%
Cc1cc(O)c(CN2CC=C(c3ccccc3)CC2)cc1C(C)C | -18% | -19%
Cc1cccc(-c2nc(CS(=O)CC(=O)N3CCCCC3)c(C)o2)c1 (centres undefined) | -2% | 1%
CCN(CC)c1cccc(OC2=NS(=O)(=O)c3ccccc32)c1 | 27% | 10%
COc1ccc(OC)c(CN2C(=O)c3ccccc3C2c2nnnn2C(C)C)c1 (centres undefined) | -2% | 2%
Cc1ccc(CCNC(=O)CCS(=O)(=O)c2ccc3nc(C)sc3c2)cc1 | -4% | -2%
O=C(NCc1cccs1)C1CC(c2ccc(F)cc2)=NO1 (centres undefined) | -5% | -10%
CC(C)C[C@@H]1COc2cccc(N3CCN(Cc4ccccc4F)CC3)c2S(=O)(=O)N1 | -7% | i
O=C(CCNC(=O)N1CC(=O)Nc2ccccc21)NCCc1ccc(Cl)cc1 | -23% | -13%
C=CCc1c(Cl)nc(C)nc1NCc1ccccc1 | -10% | -13%
CC(/C=C/c1ccco1)=N/NC(=O)OC(C)(C)C | 11% | i
CC1CN(S(=O)(=O)c2cccc(C(=O)Nc3ccc(N4CCCCC4)cc3)c2)CC(C)O1 (centres undefined) | -10% | -3%
CC(=O)c1cccc(OCC(O)CNCC2CCCCC2)c1 (centres undefined) | -1% | -9%
N#Cc1ccc(C23CC4(C2)[C@H](CN(Cc2ccc(-c5ccccc5)cc2)[C@@H]4c2ccccc2)C3c2ccccc2)cc1 (some centres undefined) | 0% | -22%
Cc1ccc(F)cc1NC(=O)CSc1n[nH]c(N)n1 | -14% | 0%
CC(C(=O)NCc1ccccc1Cl)n1ccc2cc(S(=O)(=O)N3CCCCC3)ccc21 (centres undefined) | -15% | -16%
CCN1C(=O)[C@H]2[C@@H](c3ccc(-c4ccc(Cl)c(Cl)c4)c(OC)c3)N3CCCC[C@@]3(C(=O)OC)[C@H]2C1=O | ? | -23%
COc1ccc(S(=O)(=O)Nc2ccccc2-c2nnn(CC(=O)Nc3ccccc3OC)n2)cc1 | -21% | -7%
O=C(NCc1ccccc1)c1cc(C2COCCN2C(=O)c2ccc(Cl)cc2)on1 (centres undefined) | -5% | -9%
CC(C)c1ccc(-n2cccc2/C=C2/C(=N)N3C=CSC3=NC2=O)cc1 | -27% | ?
CC(=O)Nc1ccc(S(=O)(=O)NCC2CCC(C(=O)N3CCCCCC3)CC2)cc1 (centres undefined) | -5% | -7%
CC(C)C(OC(=O)c1cccs1)C(=O)NCCc1ccccc1 (centres undefined) | 5% | -16%
COc1cccc(NC(=O)NC2CC(=O)N(c3ccc4c(c3)OCCO4)C2)c1 (centres undefined) | -18% | -4%
O=C(O)C1C2C=CC(O2)C1C(=O)NC1CCCc2ccccc21 (centres undefined) | -6% | .
O=C(CSc1nnc(-c2ccco2)o1)c1ccccc1Cl | -16% | -20%
CCOc1ccc(N(CC(=O)NCCc2ccccc2)C(=O)c2csnn2)cc1 | 18% | -5%
O=C(Cn1cc(S(=O)(=O)Cc2ccc(F)cc2)c2ccccc21)NCCc1ccccc1 | -13% | i
N#CC12C(N)=NC3(OCCO3)C1(C#N)C1=C(CCC1)NC2c1ccccc1 (centres undefined) | 5% | .

High-throughput results (PubChem BioAssay)
